STAT3 SMM: STAT3 (human) binding; Small molecule microarray, His-STAT3 binding, anti-His fluorescence; calls only; P40763; actives 0.2% (n = 17,000); AID 624138;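 active means compounds whose four printed spots each show fluorescence over background unusually high for their array block, chance value under 7%; compounds were printed on slides so no solution concentration is given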;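 further: about 2 pmol printed per array spot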
Target sequence (P40763 whole entry, looked up): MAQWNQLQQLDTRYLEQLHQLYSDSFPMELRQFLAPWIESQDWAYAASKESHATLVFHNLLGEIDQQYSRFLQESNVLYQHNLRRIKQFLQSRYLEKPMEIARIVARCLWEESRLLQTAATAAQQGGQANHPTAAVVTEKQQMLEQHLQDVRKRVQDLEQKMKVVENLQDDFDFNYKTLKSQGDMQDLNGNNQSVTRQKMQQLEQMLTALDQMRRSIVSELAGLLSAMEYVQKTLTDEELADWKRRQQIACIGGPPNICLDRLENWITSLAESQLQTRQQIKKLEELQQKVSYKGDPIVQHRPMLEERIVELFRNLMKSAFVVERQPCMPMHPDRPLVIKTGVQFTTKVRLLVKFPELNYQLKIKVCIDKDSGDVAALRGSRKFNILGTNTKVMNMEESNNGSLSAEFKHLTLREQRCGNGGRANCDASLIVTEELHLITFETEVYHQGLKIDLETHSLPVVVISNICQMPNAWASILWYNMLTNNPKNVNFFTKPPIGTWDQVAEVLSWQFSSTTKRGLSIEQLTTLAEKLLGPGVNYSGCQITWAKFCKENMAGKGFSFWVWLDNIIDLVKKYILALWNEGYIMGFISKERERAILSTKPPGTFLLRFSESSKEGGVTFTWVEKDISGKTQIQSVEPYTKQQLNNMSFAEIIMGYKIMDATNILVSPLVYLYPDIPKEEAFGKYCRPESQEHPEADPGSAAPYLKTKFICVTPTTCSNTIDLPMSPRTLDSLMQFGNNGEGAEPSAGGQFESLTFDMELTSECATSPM
mut p53 SMM: mutant p53 (human) binding | small molecule microarray binding, anti-GST fluorescence | calls only | actives 0.4% (n = 17,000);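 active means compounds whose four printed spots each glow above background more than chance allows, each with a p-value under 7%; compounds were printed on slides so no solution concentration is given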;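 further: about 2 pmol printed per array spot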
Myc binder: c-Myc (human) binding; small molecule microarray, His-c-Myc binding, anti-His fluorescence; calls only; actives 1.5% (n = 17,000); AID 624141;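 active means spot fluorescence over background with P-value below 7% in all four replicate spots, showing protein binding; compounds were printed on slides so no solution concentration is given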;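 further: score is binary with 100 for all four spots passing and 0 otherwise; about 2 pmol printed per array spot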
ID4 SMM: binds human ID4 protein on microarray; P47928; small molecule microarray, Flag-ID4 binding, fluorescence F/B; calls only; actives 1.2% (n = 31,000); AID 624137;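 active means spot signal over background at p below 0.07 in all four prints; compounds were printed on slides so no solution concentration is given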;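 further: a binder raises fluorescence above local background on the spot; about 2 pmol printed per array spot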
Target sequence (P47928 whole entry, looked up): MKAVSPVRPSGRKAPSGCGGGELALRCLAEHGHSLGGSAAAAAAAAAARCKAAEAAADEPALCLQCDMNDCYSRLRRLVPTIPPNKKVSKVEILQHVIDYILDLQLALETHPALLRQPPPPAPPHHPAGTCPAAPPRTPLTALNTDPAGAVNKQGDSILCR
Calls only; i = inactive; . = no result given; + = active, no number. A portion of the library; the hit share may differ from the screen's.

SMILES | STAT3 SMM | mut p53 SMM | Myc binder | ID4 SMM
Cc1noc(C)c1NC(=O)N(C)C[C@H]1Oc2c(NC(=O)c3ccc(-c4nccs4)cc3)cccc2C(=O)N([C@H](C)CO)C[C@@H]1C | i | i | i | i
C[C@H](CO)N1C[C@H](C)[C@@H](CN(C)S(=O)(=O)c2ccccc2)Oc2ccc(NC(=O)NC3CCCCC3)cc2CC1=O | i | i | i | i
Cc1cc(N(CC(=O)Nc2ccccc2C(=O)N2CCCC2)S(C)(=O)=O)ccc1Br | i | i | i | i
C[C@H]1CCCCO[C@@H](CN(C)Cc2ccc(C(=O)O)cc2)[C@@H](C)CN([C@@H](C)CO)C(=O)c2cc(NC(=O)Nc3ccc(F)cc3)ccc2O1 | i | i | i | i
CNC[C@@H]1Oc2ccc(NC(=O)CCCN(C)C)cc2C(=O)N([C@H](C)CO)C[C@@H]1C | i | i | i | i
COc1ccccc1NC(=O)c1c(NC(=O)c2cccnc2)sc2c1CCC(C)C2 (stereo unspecified) | i | i | i | i
C[C@H](CO)N1C[C@H](C)[C@H](CN(C)Cc2ccccc2)Oc2ccc(N(C)C)cc2C1=O | i | i | i | i
COc1ccc(-c2cn(S(=O)(=O)c3ccccc3OC)nc2N)cc1OC | i | i | i | i
COc1cc(NC(=O)Cn2nnc(-c3ccccc3Cl)n2)cc(OC)c1OC | i | i | i | i
COC(=O)C1=C(C)Nc2ncnn2C1c1cccc(OC)c1OCc1ccccc1 (stereo unspecified) | i | i | i | i
CC1=CC(=O)CC2C1(C)CCC(C)C2(C)CC/C(C)=C\C(=O)O (stereo unspecified) | i | i | i | i
C[C@H](CO)N1C[C@H](C)[C@H](CN(C)S(=O)(=O)c2ccccc2)OCCCC[C@H](C)Oc2ccc(NC(=O)c3ccccc3)cc2C1=O | i | i | i | i
C[C@@H]1CN([C@H](C)CO)C(=O)c2cc(NC(=O)NC3CCCCC3)ccc2O[C@@H]1CN(C)C(=O)Nc1ccccc1 | i | i | i | i
Cc1ccc(S(=O)(=O)Nc2ccc3c(c2)CC(=O)N([C@H](C)CO)C[C@@H](C)[C@H](CN(C)Cc2ccncc2)O3)cc1 | i | i | i | i
COc1ccc([C@H]2C=C(C(=O)NCc3ccccc3)O[C@@H](OCc3ccc(CO)cc3)C2)cc1 | i | i | i | i
Cc1cc(C)cc(NC(=O)COc2ccc(N3CC(C(N)=O)CC3=O)cc2)c1 (stereo unspecified) | i | i | i | i
COc1ccccc1CC(=O)Nc1ccc(S(=O)(=O)N2CCOCC2)cc1 | i | i | i | i
C[C@H]1CN([C@@H](C)CO)C(=O)c2cccc(NC(=O)NC3CCCCC3)c2O[C@@H]1CN(C)C(=O)NC1CCCCC1 | i | i | i | i
C[C@@H]1CN([C@H](C)CO)C(=O)c2cccc(NS(=O)(=O)c3ccc(Cl)cc3)c2O[C@H]1CN(C)C | i | i | i | i
Cc1noc(C)c1NC(=O)N(C)C[C@@H]1OCCCC[C@@H](C)Oc2ccc(NC(=O)c3ccncc3)cc2C(=O)N([C@@H](C)CO)C[C@H]1C | i | i | i | i

One compound at a time, as listed above:
C[C@H]1CN([C@@H](C)CO)C(=O)c2cccc(NC(=O)NC3CCCCC3)c2O[C@@H]1CN(C)C(=O)NC1CCCCC1 is entered as STAT3 SMM: i; mut p53 SMM: i; Myc binder: i; ID4 SMM: i
COc1ccc([C@H]2C=C(C(=O)NCc3ccccc3)O[C@@H](OCc3ccc(CO)cc3)C2)cc1 is entered as STAT3 SMM: i; mut p53 SMM: i; Myc binder: i; ID4 SMM: i
CC1=CC(=O)CC2C1(C)CCC(C)C2(C)CC/C(C)=C\C(=O)O (stereo unspecified) is entered as STAT3 SMM: i; mut p53 SMM: i; Myc binder: i; ID4 SMM: i

Returning to the listing with the 2 entries that preceded the break.
SMILES | STAT3 SMM | mut p53 SMM | Myc binder | ID4 SMM
C[C@@H]1CN([C@H](C)CO)C(=O)c2cccc(NS(=O)(=O)c3ccc(Cl)cc3)c2O[C@H]1CN(C)C | i | i | i | i
Cc1noc(C)c1NC(=O)N(C)C[C@@H]1OCCCC[C@@H](C)Oc2ccc(NC(=O)c3ccncc3)cc2C(=O)N([C@@H](C)CO)C[C@H]1C | i | i | i | i
C[C@@H]1CN([C@H](C)CO)C(=O)Cc2cc(NS(C)(=O)=O)ccc2O[C@H]1CN(C)S(=O)(=O)c1cccs1 | i | i | i | i
O=c1[nH]c2ccccc2c2ccccc12 | i | i | i | i
CCc1ccc(-n2c(C)nnc2SCC(=O)Nc2ccc(OC)cc2)cc1 | i | i | i | i
O=C(O)C1CC=CCC1C(=O)Nc1cccc(C(=O)N2CCCCC2)c1 (stereo unspecified) | i | i | i | i
Cc1noc(C)c1S(=O)(=O)N(C)C[C@@H]1Oc2c(NC(=O)c3nc4ccccc4s3)cccc2C(=O)N([C@H](C)CO)C[C@@H]1C | i | i | i | i
O=c1cc(CSc2nnnn2-c2ccccc2)[nH]c(=S)[nH]1 | i | i | i | i
COc1ccc(-c2nn(-c3ccccc3)cc2C2NC(=O)NC(C)=C2C(=O)OCc2ccccc2)cc1 (stereo unspecified) | i | i | i | i
C[C@@H]1CN([C@H](C)CO)C(=O)c2cccc(NC(=O)Nc3ccc(C(F)(F)F)cc3)c2O[C@H]1CN(C)CC1CC1 | + | i | i | i
Cc1nc(SCC(=O)NCc2ccccc2)n[nH]1 | i | i | i | i
C[C@H]1CN([C@@H](C)CO)C(=O)c2cc(NS(=O)(=O)c3cn(C)cn3)ccc2O[C@H]1CN(C)S(=O)(=O)c1cn(C)cn1 | i | i | i | i
Cc1noc(C)c1S(=O)(=O)N(C)C[C@@H]1Oc2ccc(NC(=O)Nc3ccccc3)cc2CC(=O)N([C@H](C)CO)C[C@H]1C | i | i | i | i
C[C@H](CO)N1C[C@H](C)[C@@H](CN(C)S(=O)(=O)c2ccccc2)OCCCC[C@H](C)Oc2ccc(NS(C)(=O)=O)cc2C1=O | i | i | i | i
C[C@H](CO)N1C[C@H](C)[C@H](CN(C)CC2CC2)Oc2c(NC(=O)c3ccncc3)cccc2C1=O | i | i | i | i
C[C@@H]1CN([C@H](C)CO)C(=O)c2cccc(NS(=O)(=O)c3cccs3)c2O[C@@H]1CN(C)Cc1ccc(-c2ccccc2)cc1 | i | i | i | i
COC(=O)c1ccccc1NC(=O)CSc1nc(-c2ccccc2)cc(=O)[nH]1 | i | i | i | i
Cn1c(=O)c2c(ncn2CC(O)CNc2ccc(Br)cc2)n(C)c1=O (stereo unspecified) | i | i | i | i
C[C@@H]1CCCCO[C@@H](CN(C)C(=O)Nc2ccccc2)[C@@H](C)CN([C@@H](C)CO)C(=O)c2cc(NC(=O)CCC(F)(F)F)ccc2O1 | i | i | i | i
COc1cc(OC)c(C(=O)NCc2ccccn2)cc1OC | i | i | i | i
O=C(NCc1n[nH]c(=O)c2ccccc12)c1cc2ccccc2oc1=O | i | i | i | i
C[C@@H]1CN([C@H](C)CO)C(=O)c2cc(N(C)C)ccc2O[C@@H]1CN(C)C(=O)NC1CCCCC1 | i | i | i | i
C[C@H]1CN([C@@H](C)CO)C(=O)c2cc(NC(=O)CCC(F)(F)F)ccc2O[C@@H]1CN(C)C(=O)Nc1cccc2ccccc12 | i | i | i | .
CCOC(=O)c1ccc(Nc2nnc(CSc3nc(C)cc(C)n3)s2)cc1 | i | i | i | i
CCOC(=O)c1oc2c(C)c(O)ccc2c(=O)c1-c1nncn1-c1ccccc1 | i | i | i | i
Cc1cc(Br)c2c(c1)C(O)(CC(=O)c1ccc(C)o1)C(=O)N2 (stereo unspecified) | i | i | i | i
C[C@@H]1CN([C@@H](C)CO)C(=O)c2cc(N(C)C)ccc2O[C@H]1CN(C)Cc1ccccc1 | i | i | i | i
O=C(O)C1CC=CCC1C(=O)Nc1ccc(S(=O)(=O)N2CCc3ccccc32)cc1 (stereo unspecified) | i | i | i | i
COc1ccc(S(=O)(=O)Nc2cccc3c2O[C@@H](CN(C)Cc2ccncc2)[C@@H](C)CN([C@@H](C)CO)C3=O)cc1 | i | i | i | i
CC(C)NC(=O)N(C)C[C@H]1Oc2ccc(NS(=O)(=O)c3cn(C)cn3)cc2CC(=O)N([C@@H](C)CO)C[C@@H]1C | i | i | i | i
CC(CCCCC(=O)Nc1ccc(C(F)(F)F)cc1)NCCc1cnc[nH]1 (stereo unspecified) | i | i | i | i
C[C@H]1CCCCO[C@@H](CN(C)C(=O)Nc2ccccc2)[C@@H](C)CN([C@@H](C)CO)C(=O)c2cc(N(C)C)ccc2O1 | i | i | i | i
C=C(C(=O)O)[C@@H]1CC[C@@]2(C)CC[C@H](O)[C@@]2(C(C)=O)C1 | i | i | i | i
COc1ccc(S(=O)(=O)N(C)C[C@@H]2Oc3ccc(NS(=O)(=O)c4ccc(Cl)cc4)cc3C(=O)N([C@H](C)CO)C[C@@H]2C)cc1 | i | i | i | i
C[C@H](CO)N1C[C@H](C)[C@H](CN(C)C(=O)Nc2cccc3ccccc23)OCc2cn(nn2)CCCC1=O | i | i | i | i
Cc1ccc(-n2c(SCC(=O)Nc3ccc(C)c(Cl)c3)nnc2-c2ccccc2O)c(C)c1 | i | i | i | i
CC(C)NC(=O)N(C)C[C@@H]1OCCCC[C@@H](C)Oc2ccc(NC(=O)Nc3ccccc3)cc2C(=O)N([C@H](C)CO)C[C@@H]1C | i | i | i | i
CC(C)NC(=O)N(C)C[C@H]1Oc2ccc(NC(=O)CCC(F)(F)F)cc2CC(=O)N([C@@H](C)CO)C[C@@H]1C | i | i | i | i
C=CCOC(=O)[C@H]1[C@@H]2C(=O)O[C@@H](c3ccccc3)[C@@H](c3ccccc3)N2[C@@H](c2ccc(OCCOC(=O)[C@H]3C[C@H]4C(=O)NCC(=O)N4[C@H]3c3ccc(O)cc3)cc2)[C@]12C(=O)Nc1ccccc12 | i | i | i | i
COc1ccc(CCNC(=O)c2cc3ccccc3oc2=O)cc1OC | i | i | i | i
O=C1O[C@H](c2ccccc2)[C@H](c2ccccc2)N2[C@H]1[C@@H](C(=O)N1CCN(c3ncccn3)CC1)[C@]1(C(=O)Nc3ccc(C#CC4=CCCCC4)cc31)[C@H]2c1ccccc1OCCO | i | i | i | i
C[C@H]1CN([C@@H](C)CO)C(=O)c2cccc(N(C)C)c2O[C@@H]1CN(C)C(=O)Nc1ccc(C(F)(F)F)cc1 | i | i | i | i
COc1ccc(S(=O)(=O)N(C)C[C@@H]2Oc3ccc(NC(=O)Nc4ccc(C(F)(F)F)cc4)cc3CC(=O)N([C@H](C)CO)C[C@@H]2C)cc1 | i | i | i | i
C[C@H](CO)N1C[C@H](C)[C@H](CN(C)C(=O)Nc2ccccc2F)OCc2cn(nn2)CCCC1=O | i | i | i | i
COc1cc(CNC2CCCC2)ccc1OCC(N)=O | i | i | i | i
C[C@@H]1CCCCO[C@@H](CN(C)C(=O)CCC(F)(F)F)[C@@H](C)CN([C@@H](C)CO)C(=O)c2cc(NS(C)(=O)=O)ccc2O1 | i | i | i | i
CC1(C)CC[C@]2(C(=O)O[C@@H]3O[C@H](CO)[C@@H](O)[C@H](O)[C@H]3O)CC[C@]3(C)C(=CCC4[C@@]5(C)CC[C@H](O[C@@H]6O[C@H](C(=O)O)[C@@H](O[C@@H]7O[C@H](CO)[C@@H](O)[C@H](O)[C@H]7O)[C@H](O)[C@H]6O[C@@H]6O[C@H](CO)[C@@H](O)[C@H](O)[C@H]6O)C(C)(C)C5CC[C@]43C)C2C1 (stereo partly specified) | i | i | i | .
C[C@H]1C=C(C(=O)Nc2ccccc2)O[C@@H](OCCCCO)C1 | i | i | i | .
Cc1noc(C)c1S(=O)(=O)N(C)C[C@@H]1Oc2c(NC(=O)c3cnccn3)cccc2C(=O)N([C@H](C)CO)C[C@@H]1C | i | i | i | i
O=C(/C=C/CCc1ccccc1)CCc1ccccc1 | i | i | i | i
C[C@@H]1CN([C@@H](C)CO)C(=O)c2cc(NC(=O)Cn3cnnn3)ccc2O[C@H]1CN(C)Cc1ccncc1 | i | i | i | i
C[C@H](CO)N1C[C@H](C)[C@@H](CN(C)C(=O)Nc2cccc(C(F)(F)F)c2)OCc2cn(nn2)CCCC1=O | i | i | i | .
C[C@@H]1CCCCO[C@H](CN(C)C)[C@H](C)CN([C@H](C)CO)C(=O)c2cc(NC(=O)Nc3ccc(C(F)(F)F)cc3)ccc2O1 | i | i | i | i
Cc1noc(C)c1S(=O)(=O)Nc1ccc2c(c1)CC(=O)N([C@H](C)CO)C[C@@H](C)[C@@H](CN(C)Cc1ccc(-c3ccccc3)cc1)O2 | + | i | + | i
COC1=CC(=O)O[C@@H](CCc2ccccc2)[C@@H]1O | i | i | i | i
CCO[C@@H]1OC(C(=O)NCc2nc3ccccc3[nH]2)=C[C@H](C)[C@H]1CCCO | i | i | i | i
COc1ccc(CN(C)C[C@H]2Oc3ccc(NC(=O)Nc4ccc(C(F)(F)F)cc4)cc3C(=O)N([C@@H](C)CO)C[C@@H]2C)cc1 | i | i | i | i
Oc1ccc([C@@H]2Oc3cc(O)cc(O)c3C[C@@H]2O)cc1 | i | i | i | .
